Screening results: PubChem BioAssay, National Center for Advancing Translational Sciences (NCATS)
Epigenetic reg – regulators of epigenetic silencing causing reporter derepression in mouse cells. murine LDR cells, GFP reporter derepression, 30 h. Potency, µM (titrated, usually from 53.9 µM), for the others: at the highest dose GFP activation, actives largely listed as activators. actives 0.2% (n = 280,000); active = well fitted activation curve with a large enough effect; also: % of control where 0% means no effect; nearly all actives have a fitted effect of over 60% in size
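Derepression of a silenced CMV-GFP reporter in murine LDR cells is scored by enumerating GFP-positive cells with a laser-scanning microplate cytometer after 30 hours of treatment at 37 C.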
The depositor's hits bear a star; & = joins results of further samples; [ ] = remark or other dose. Potency is read from the fitted curve at half-maximal effect. The list is partial; most or all hits stand in other tables.

1	OCCN(CCO)c1nc(N2CCCCC2)c2nc(N(CCO)CCO)nc(N3CCCCC3)c2n1
  Epigenetic reg: -1.0%

2	O=C(O)c1cccnc1SCCc1ccccc1
  Epigenetic reg: 1.1%

3	CCN1CCN(C(=O)c2ccc(NS(=O)(=O)c3ccccc3)cc2)CC1
  Epigenetic reg: -11%

4	CCC(C)n1c(C)nc2c(c1=O)c1nc3ccccc3nc1n2CCC1=CCCCC1 (stereo not given)
  Epigenetic reg: 1.9%

5	O=C(N/N=C/c1ccc([N+](=O)[O-])s1)c1cccnc1
  Epigenetic reg: 0.0%

6	COc1ccc([C@H]2Sc3ccccc3N(CCN(C)C)C(=O)[C@H]2OC(C)=O)cc1
  Epigenetic reg: 2.7%[16.9 µM]

7	CCCCCCOC(=O)c1ccc(N)cc1
  Epigenetic reg: 2.5%

8	C[C@H]1O[C@H](O[C@H]2[C@H](O)[C@@H](O)[C@@H](O[C@H]3[C@H](O)[C@@H](O)C(O)O[C@@H]3CO)O[C@@H]2CO)[C@H](O)[C@@H](O)[C@@H]1N[C@H]1C=C(CO)[C@@H](O)[C@H](O)[C@H]1O (stereo not given in full)
  Epigenetic reg: 2.1%

9	Cn1c(=O)c2[nH]cnc2n(C)c1=O
  Epigenetic reg: 1.7%

10	O=C(Nc1ccc2oc(=O)ccc2c1)c1cccnc1Cl
  Epigenetic reg: 0.0%

11	COc1ccc(/C=C/C(=O)O)cc1OC
  Epigenetic reg: -1.1%&0.0%&-2.1%

12	COc1ccc(C2Sc3ccccc3N(CCN(C)C)C(=O)[C@@H]2OC(C)=O)cc1 (stereo not given in full)
  Epigenetic reg: 6.3%&0.0%

13	CCCCN(CCCC)c1nc(OC)nc(-n2nnc(C(C)=O)c2C)n1
  Epigenetic reg: 0.0%

14	CC1CC2C(C(O)C[C@]3(C)C2CC[C@]3(O)C(=O)CO)[C@]2(C)C=CC(=O)C=C12 (stereo not given in full)
  Epigenetic reg: -1.3%

In a second layout: results already given
nr	Compound	Epigenetic reg
1	OCCN(CCO)c1nc(N2CCCCC2)c2nc(N(CCO)CCO)nc(N3CCCCC3)c2n1	-1.0%
2	O=C(O)c1cccnc1SCCc1ccccc1	1.1%
8	C[C@H]1O[C@H](O[C@H]2[C@H](O)[C@@H](O)[C@@H](O[C@H]3[C@H](O)[C@@H](O)C(O)O[C@@H]3CO)O[C@@H]2CO)[C@H](O)[C@@H](O)[C@@H]1N[C@H]1C=C(CO)[C@@H](O)[C@H](O)[C@H]1O (stereo not given in full)	2.1%
12	COc1ccc(C2Sc3ccccc3N(CCN(C)C)C(=O)[C@@H]2OC(C)=O)cc1 (stereo not given in full)	6.3%&0.0%

Quoted at random: 2 compounds from above
6	COc1ccc([C@H]2Sc3ccccc3N(CCN(C)C)C(=O)[C@H]2OC(C)=O)cc1
  Epigenetic reg: 2.7%[16.9 µM]

4	CCC(C)n1c(C)nc2c(c1=O)c1nc3ccccc3nc1n2CCC1=CCCCC1 (stereo not given)
  Epigenetic reg: 1.9%
